From PubChem
RE007 growth inh = less growth of the S. pombe RE007 Vpr strain; Potency, µM (top dose mostly 92.2 µM), inactives show at the highest dose activity change, negative = less growth; S. pombe RE007 Vpr strain, BacTiter-Glo ATP luminescence, 24 h; control for the full effect not named in the record; 360,000 compounds, 0.21% hits; active = well fitted falling curve with a large enough effect; inconclusive = small, poorly fitted or top-dose-only effect; inactive = no such curve, though single readings can be large or run the other way;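 further: on the % scale 0 is the no-effect control and ±100 the full control effect; nearly all actives have a fitted effect of over 50% in size; the assay follows cell death caused by Vpr and the record does not say whether a fall means rescue or toxicity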
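Fission yeast RE007 carrying one integrated HIV-1 vpr copy, seeded at OD 0.01 in PMG+AL medium with 23 nL pinned compound. Grown 24 h at 30 degrees; viability read by BacTiter-Glo luminescence after 5 min.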
NS1 inh = inhibitors of influenza NS1 protein function; Potency, µM (top dose mostly 46.1 µM), without a hit: top-dose activity, positive = more growth; AID 2326; 270,000 compounds, 0.4% hits; S. cerevisiae slowed by influenza A NS1, growth recovery by OD600; further: actives are rising curves; nearly all actives have a fitted effect of over 50% in size
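Growth recovery, yeast-based: influenza A NS1 expressed in S. cerevisiae causes slow growth, and suppressors are detected by OD600. The parent strain without NS1 is used as positive control.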
Lassa entry inh = blocks Lassa virus binding to or entry into cells | Lassa virus pseudotype entry inhibition, cell reporter; control for the full effect not named in the record | Potency, µM (titrated, usually from 37.9 µM), for inactives: top-dose activity change, negative = inhibition, actives largely listed as inhibitors | 300,000 compounds, 1.2% hits; active means well fitted inhibition curve with a large enough effect; inconclusive means small, poorly fitted or top-dose-only effect, or effect the other way; inactive means flat fitted curve, though single readings scatter; tested in HEK293 cells; further: on the % scale 0 is the no-effect control and ±100 the full control effect; nearly all actives have a fitted effect of over 50% in size; luciferase read-out
MARV entry inh = inhibitors of Marburg virus binding or cell entry. Potency, µM (series often up to 37.8 µM), without a hit: at the highest dose activity change, negative = inhibition, most hits filed as inhibitors. 300,000 compounds, 1.8% hits. AID 540276. Marburg virus pseudotyped entry inhibition, cell reporter; control for the full effect not named in the record; about a third of the inactives were read at about 46 µM; active = well fitted inhibition curve with a large enough effect; inconclusive = small, poorly fitted or top-dose-only effect, or effect the other way; inactive = flat fitted curve, though single readings scatter; tested in HEK293 cells; about a fifth of its hits are not listed in these tables; further: on the % scale 0 is the no-effect control and ±100 the full control effect; luciferase read-out
2A StopGo = lowers the luciferase signal of an FMDV 2A StopGo reporter; human cells with a luciferase reporter of 2A StopGo recoding; control for the full effect not named in the record; Potency, µM (series often up to 57.9 µM), for the others: at the highest dose signal change, negative = less light; 410,000 compounds, 1.2% hits; active = well fitted falling curve with a large enough effect; inconclusive = small, poorly fitted or top-dose-only effect; inactive = no such curve, though single readings can be large or run the other way; tested in HEK293T cells; further: on the % scale 0 is the no-effect control and ±100 the full control effect; nearly all actives have a fitted effect of over 45% in size; luciferase light after 4 h
Cruzain noTriton = inhibitors of Trypanosoma cruzi cruzain without detergent; P25779; 200,000 compounds, 2.3% hits; purified cruzain, Z-FR-AMC fluorescence, no detergent; Potency, µM, without a hit: max response, negative = inhibition, actives largely listed as inhibitors; active means well fitted curve in the direction sought with a large enough effect; inconclusive means small, poorly fitted or top-dose-only effect, or another doubt; inactive means no such curve, though single readings can be large; an effect the other way counts as inactive or inconclusive;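 further: plate controls were enzyme without inhibitor for no effect and buffer without enzyme for full effect; nearly all actives have a fitted effect of over 40% in size; top concentration of the series not given in the record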
Target sequence (P25779 123-467 limits assumed): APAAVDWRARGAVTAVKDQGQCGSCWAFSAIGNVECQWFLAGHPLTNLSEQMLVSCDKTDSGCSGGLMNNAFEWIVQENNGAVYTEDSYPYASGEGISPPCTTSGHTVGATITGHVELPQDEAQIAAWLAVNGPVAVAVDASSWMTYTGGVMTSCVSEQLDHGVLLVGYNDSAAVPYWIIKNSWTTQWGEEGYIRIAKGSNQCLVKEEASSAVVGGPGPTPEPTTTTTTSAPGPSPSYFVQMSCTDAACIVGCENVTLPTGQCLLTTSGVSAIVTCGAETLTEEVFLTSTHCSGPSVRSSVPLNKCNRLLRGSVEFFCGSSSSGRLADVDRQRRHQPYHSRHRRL
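Detergent-free condition (0.00005% Triton X-100) in acetate buffer pH 5.5 with DTT. 1.5 nM enzyme and compound were pre-mixed 15 min, then 2 uM Z-FR-AMC substrate added; reaction progress from fluorescence change between first and third reads (60 s).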
Cruzain Triton = blocks cruzain activity in presence of Triton detergent. purified cruzain, Z-FR-AMC fluorescence, 0.01% Triton. AID 1478. Potency, µM, inactives show max response, negative = inhibition, actives largely listed as inhibitors. 200,000 compounds, 0.43% hits; active means well fitted curve in the direction sought with a large enough effect; inconclusive means small, poorly fitted or top-dose-only effect, or another doubt; inactive means no such curve, though single readings can be large; an effect the other way counts as inactive or inconclusive;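 further: plate controls were neutral wells for no effect and buffer without enzyme for full effect; nearly all actives have a fitted effect of over 40% in size; top concentration of the series not given in the record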
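Enzyme 1.5 nM, Z-FR-AMC 2 uM, NaOAc 100 mM pH 5.5, DTT 5 mM, Triton X-100 0.01%; 15 min RT compound preincubation; kinetic ex360/em450, 60 s delta.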
SARS PLP yeast = SARS-CoV PLP inhibition in yeast; S. cerevisiae expressing SARS-CoV PLpro, growth rescue; control for the full effect not named in the record; AID 485353; Potency, µM (highest dose often 32.9 µM), for inactives: at the top dose activity, positive = growth rescue; 330,000 compounds, 0.19% hits; further: 0% is about no effect; nearly all actives have a fitted effect of over 55% in size; growth read by luminescence after 48 h
* = called active by the depositor; [ ] = another dose, or the depositor's remark. Unless noted, the call rests on the fitted dose curve; in most records, active means well fitted rising curve with a large enough effect; inconclusive means small, poorly fitted or top-dose-only effect; inactive means no such curve, though single readings can be large or run the other way. Potency means the concentration at half of the fitted maximal effect.

What do the screens show for `O=C(C1CCCN(Cc2ccc(Br)cc2)C1)N1CCCCC1` (stereo unspecified)?
RE007 growth inh: -1%; NS1 inh: -1%; 2A StopGo: inconclusive; SARS PLP yeast: 1%

How did COc1ccc(OC)c(CN2CCN(Cc3cc(=O)oc4cc(O)ccc34)CC2)c1 do in these assays?
RE007 growth inh: -12%; NS1 inh: 4%; Lassa entry inh: -19%[46.1 µM]; MARV entry inh: inconclusive; 2A StopGo: 9%; SARS PLP yeast: 2%

Results for C=CCCCCCCCCc1nc(=S)[nH][nH]1 ?
RE007 growth inh: 56%; NS1 inh: -77%; Lassa entry inh: 12%; MARV entry inh: 0%; 2A StopGo: -11%; Cruzain noTriton: 1%; Cruzain Triton: -0.9%; SARS PLP yeast: 14%[6.58 µM]

Results for O=C(O)C1C2C=CC(C2)C1C(=O)NCc1ccco1 (stereo unspecified) ?
RE007 growth inh: -8%; NS1 inh: 3%; 2A StopGo: -5%; SARS PLP yeast: 1%

What do the screens show for `Cc1csc(-c2cnn(-c3ccccc3)c2NC(=O)c2cccc(C(F)(F)F)c2)n1`?
RE007 growth inh: 13%; NS1 inh: 13%; Lassa entry inh: -14%; MARV entry inh: 6%; 2A StopGo: -23%; Cruzain noTriton: inconclusive; Cruzain Triton: -8.9%; SARS PLP yeast: -10%

What do the screens show for `Cc1sc(NC(=S)NC(=O)c2ccco2)c(C#N)c1C`?
RE007 growth inh: 8%; NS1 inh: -4%; Lassa entry inh: 4%[46.1 µM]; MARV entry inh: inconclusive; 2A StopGo: -10%; SARS PLP yeast: -2%

How did CCOC(=O)C1=C(CS(=O)(=O)c2ccc(F)c(C)c2)NC(=O)NC1c1ccc(F)c(F)c1 (stereo unspecified) do in these assays?
Lassa entry inh: -11%[46.1 µM]; MARV entry inh: -8%[46.1 µM]; 2A StopGo: -12%; Cruzain noTriton: 7%; Cruzain Triton: -4.4%

Results for O=C(CNC(=O)c1ccccc1)Oc1cccc(Cl)c1 ?
RE007 growth inh: -29%; Lassa entry inh: -20%; MARV entry inh: 12%[46.1 µM]; 2A StopGo: 4%

How did Cc1sc2ncnc(Sc3ccccc3C(=O)O)c2c1C do in these assays?
RE007 growth inh: 21%; Lassa entry inh: -3%; MARV entry inh: 14%[46.1 µM]; 2A StopGo: 3%; SARS PLP yeast: -1%

What do the screens show for `CCNC(=O)Cc1ccc(NS(=O)(=O)c2ccc(F)cc2)cc1`?
RE007 growth inh: -1%; NS1 inh: inconclusive; Lassa entry inh: -13%; MARV entry inh: -29%; 2A StopGo: 19%; Cruzain noTriton: -10%; Cruzain Triton: 0.8%; SARS PLP yeast: 0%

How did COc1ccc(Nc2nc(N)c([N+](=O)[O-])c(N3CCOCC3)n2)cc1 do in these assays?
RE007 growth inh: 11%; NS1 inh: 0%; 2A StopGo: -28%; SARS PLP yeast: 0%

What do the screens show for `Cc1cccc(C)c1NC(=O)C1CCCN1C(=O)OC(C)(C)C` (stereo unspecified)?
RE007 growth inh: -4%; NS1 inh: 3%; Lassa entry inh: -4%; MARV entry inh: -1%[46.1 µM]; 2A StopGo: 25%; SARS PLP yeast: 1%

Results for Cc1cc(-c2sccc2C)nc(-n2cccc2)n1 ?
RE007 growth inh: -25%; NS1 inh: -2%; Lassa entry inh: 16%; MARV entry inh: -2%; 2A StopGo: -4%; Cruzain noTriton: -3%; Cruzain Triton: -6.7%; SARS PLP yeast: -2%

Results for O=C1N=C(N2CCCCC2)S/C1=C/C1=Cc2ccccc2OC1 ?
RE007 growth inh: -11%; NS1 inh: 11%; Lassa entry inh: inconclusive; MARV entry inh: inconclusive; 2A StopGo: 25%; SARS PLP yeast: -5%

Results for COCCN(C(=O)CSc1nc(-c2ccccc2)cn1N)c1c(N)n(Cc2ccccc2)c(=O)[nH]c1=O ?
RE007 growth inh: 2%; Lassa entry inh: -1%; MARV entry inh: 3%; 2A StopGo: 8%

Results for COc1ccc(OC)c(NC(=O)NNC(=O)COc2ccc(F)cc2F)c1 ?
RE007 growth inh: 11%; NS1 inh: 4%; Lassa entry inh: -21%; MARV entry inh: -24%; 2A StopGo: -13%; SARS PLP yeast: 5%

How did COC(=O)c1sccc1NC(=O)Nc1ccc(C)c(C)c1 do in these assays?
RE007 growth inh: inconclusive; NS1 inh: -65%; 2A StopGo: -42%; SARS PLP yeast: -15%

What do the screens show for `COc1ccccc1NC(=S)NNC(=O)c1nn(C)cc1Cl`?
RE007 growth inh: -4%; NS1 inh: 10%; Lassa entry inh: 2%; MARV entry inh: 6%[46.1 µM]; 2A StopGo: 10%; Cruzain noTriton: 9%; Cruzain Triton: 0.7%; SARS PLP yeast: -2%

Results for COc1ccc(Cc2nnc(NC(=O)CS(=O)(=O)c3ccc(C)cc3)s2)cc1OC ?
RE007 growth inh: -5%; NS1 inh: -6%; Lassa entry inh: 1%; MARV entry inh: -12%[46.1 µM]; 2A StopGo: -11%; SARS PLP yeast: 2%

Results for COc1ccc(C2(CNC(=O)c3ccc(N)cc3)CCCC2)cc1 ?
RE007 growth inh: 7%; NS1 inh: 17%; 2A StopGo: -18%; SARS PLP yeast: -7%

How did CSc1cccc(NP2(=O)OCC(C)([N+](=O)[O-])CO2)c1 (stereo unspecified) do in these assays?
RE007 growth inh: -1%; Lassa entry inh: 0%[46.1 µM]; MARV entry inh: -13%; 2A StopGo: 29%

How did CCN(CC)C(=O)Cn1nc(-c2ccc(Cl)cc2)c2ccccc2c1=O do in these assays?
RE007 growth inh: -2%; NS1 inh: -4%; Lassa entry inh: -17%; MARV entry inh: 0%[46.1 µM]; 2A StopGo: -13%; SARS PLP yeast: 3%

What do the screens show for `O=[N+]([O-])c1ccc(-c2nnc(CNC3CCCC3)o2)cc1`?
RE007 growth inh: -4%; MARV entry inh: 4%[46.1 µM]; 2A StopGo: 0%; SARS PLP yeast: -10%

How did CCOc1ccc(CCNc2nc3c(c(=O)n(C)c(=O)n3C)n2CC)cc1OCC do in these assays?
RE007 growth inh: 8%; NS1 inh: -10%; Lassa entry inh: inconclusive; MARV entry inh: inconclusive; 2A StopGo: -25%; Cruzain noTriton: 3%; Cruzain Triton: 7.0%; SARS PLP yeast: 0%

Results for CS(=O)(=O)N(CC(=O)NCc1ccncc1)c1ccc(F)c(Cl)c1 ?
RE007 growth inh: 14%; NS1 inh: -2%; Lassa entry inh: 2%[46.1 µM]; MARV entry inh: -3%[46.1 µM]; 2A StopGo: -5%; SARS PLP yeast: -2%

What do the screens show for `Cc1ccc2ccc3cccc4ccc1c2c34`?
RE007 growth inh: -21%; 2A StopGo: -24%; Cruzain noTriton: -6%; Cruzain Triton: -8.2%; SARS PLP yeast: -1%

What do the screens show for `COc1cc(C2C(C#N)=C(N)N(Nc3ccccc3)C3=C2C(=O)CC(C)(C)C3)ccc1OCc1ccccc1` (stereo unspecified)?
RE007 growth inh: -4%; NS1 inh: 23%; Lassa entry inh: inconclusive; MARV entry inh: inconclusive; 2A StopGo: -28%; Cruzain noTriton: -17%; Cruzain Triton: -1.7%; SARS PLP yeast: -6%

How did COc1cccc(C(=O)NC(C)c2ccc(Br)cc2)c1 (stereo unspecified) do in these assays?
RE007 growth inh: 72%; NS1 inh: -32%; Lassa entry inh: -16%; MARV entry inh: 25%; 2A StopGo: -12%; Cruzain noTriton: -15%; Cruzain Triton: -4.2%; SARS PLP yeast: -19%

Results for CCN1CCN(C(=O)C2CCN(c3nnc(C)c4c(C)n(-c5ccc(C)cc5)nc34)CC2)CC1 ?
RE007 growth inh: -21%; NS1 inh: -8%; 2A StopGo: inconclusive; SARS PLP yeast: 6%

How did CC(NC(=O)COC(=O)CNC(=O)c1ccccc1Cl)C1CC2CCC1C2 (stereo unspecified) do in these assays?
RE007 growth inh: 2%; Lassa entry inh: 13%; MARV entry inh: 29%; 2A StopGo: -8%; SARS PLP yeast: inconclusive

Results for O=C(COC(=O)c1nc(Cl)ccc1Cl)Nc1ccc2[nH]c(=O)[nH]c2c1 ?
RE007 growth inh: 8%; Lassa entry inh: 11%; MARV entry inh: 3%; 2A StopGo: -16%; SARS PLP yeast: 0%

How did CC(OC(=O)c1nc(Cl)ccc1Cl)C(=O)c1ccccc1 (stereo unspecified) do in these assays?
RE007 growth inh: 8%; Lassa entry inh: inconclusive; MARV entry inh: inconclusive; 2A StopGo: -17%

What do the screens show for `C=CCOc1ccc(/C(O)=C2\C(=O)C(=O)N(CCN(C)C)C2c2cccs2)cc1` (stereo unspecified)?
RE007 growth inh: 9%; NS1 inh: 11%; Lassa entry inh: 10%; MARV entry inh: 7%[46.1 µM]; 2A StopGo: 27%; Cruzain noTriton: 4%; Cruzain Triton: -3.2%; SARS PLP yeast: -7%

Results for N#CC1=C2SCN(Cc3ccccc3)CN2C(=O)CC1c1ccccc1F (stereo unspecified) ?
RE007 growth inh: -12%; NS1 inh: -18%; 2A StopGo: -7%; Cruzain noTriton: -17%; Cruzain Triton: -6.5%; SARS PLP yeast: 3%

Results for Cc1cc(C)cc(N(CC(=O)Nc2ccccc2C(=O)N2CCOCC2)S(C)(=O)=O)c1 ?
RE007 growth inh: -3%; NS1 inh: -12%; Lassa entry inh: 10%; MARV entry inh: inconclusive; 2A StopGo: -5%; Cruzain noTriton: 2%; Cruzain Triton: 2.5%; SARS PLP yeast: -4%

What do the screens show for `O=C(CCN1CCCCC1)Nc1ccccc1`?
RE007 growth inh: 0%; Lassa entry inh: 3%[46.1 µM]; MARV entry inh: 6%[46.1 µM]; 2A StopGo: 5%; SARS PLP yeast: 1%

Results for CCCn1c(=O)c2c(c3ccccc31)OC(C)C(=O)N2 (stereo unspecified) ?
RE007 growth inh: -6%; NS1 inh: -17%; Lassa entry inh: 23%; MARV entry inh: 0%; 2A StopGo: 0%; Cruzain noTriton: -15%; Cruzain Triton: 0.0%; SARS PLP yeast: -1%

Results for O=S(=O)(c1ccc(NC(=S)NCc2ccco2)cc1)N1CCCCC1 ?
RE007 growth inh: 0%; NS1 inh: -4%; Lassa entry inh: 6%[46.1 µM]; MARV entry inh: -15%[46.1 µM]; 2A StopGo: -10%; SARS PLP yeast: 0%

How did Cc1c(N=Cc2ccccn2)c(=O)n(-c2ccccc2)n1C do in these assays?
RE007 growth inh: 6%; NS1 inh: 0%; Lassa entry inh: 27%; MARV entry inh: inconclusive; Cruzain noTriton: 5%; Cruzain Triton: 4.8%; SARS PLP yeast: -5%
